Screening data: PubChem BioAssay, several laboratories
eIF4H FP inh = inhibitors of RNA binding by human eIF4H | actives 0.94% (n = 290,000) | eIF4H fluorescence polarization binding assay | inhibition, % at 35 µM | Q15056;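 active = 50% or more with normal probe brightness, or confirmed in later tests; inconclusive = above 50% with abnormal brightness, or retests that disagree; inactive = below 50% or failed in later tests; about a fifth of its hits are not listed in these tables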;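 note: calls also rest on retests at 20 µM and on dose response follow-up; 0% = protein and probe with vehicle and 100% = probe without protein; strong numbers were not always called active; many hits fall short of the cut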
HIV Env fusion = blocks HIV Env-driven cell-cell fusion; actives 1.1% (n = 360,000); inhibition, % at 12.3 µM; AID 651610; HeLa-JRFL Env/CEM21 cell fusion, luciferase;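 active = mean replicate inhibition score of at least 50 and every replicate individually at or above 50; inconclusive = only one of the two criteria met; inactive = mean below 50 and not all replicates reaching 50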;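 note: 0% = plate neutral controls and 100% = maraviroc near 300 nM; one replicate is shown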
PABP polyA inh = PABP-poly(A) binding inhibition; inhibition, % at 35 µM; PABP-poly(A) RNA binding, fluorescence polarization; actives 1% (n = 290,000); AID 2014;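 active = 50% or more with normal probe brightness, or confirmed in later tests; inconclusive = above 50% with abnormal brightness, or retests that disagree; inactive = below 50% or failed in later tests; about a fifth of its hits are not listed in these tables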;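 note: calls also rest on retests at 20 µM and on dose response follow-up; controls were probe without protein and protein plus probe with vehicle; some compounds called inactive have numbers as strong as hits; many hits fall short of the cut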
Yeast UUG start = alters start codon recognition fidelity in yeast; S. cerevisiae UUG-firefly luciferase reporter, luminescence/redox ratio; activity score, % at 18.7 µM; actives 0.13% (n = 350,000); AID 602363;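 active = replicate mean at a twofold rise or more, about +100% in these data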;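 note: firefly luciferase made from a UUG start codon reports start codon fidelity; reporter light over untreated wells divided by growth signal over untreated wells; some hits fall short of that in this replicate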
CSC inhib = blocks cancer stem cells | cancer stem cell-like cells viability, luminescence | inhibition, % at 7.5 µM | actives 1.1% (n = 300,000);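 active = mean at 75% or more and at least half the replicates too; inconclusive = mean and replicates disagree; tested in HMLE shEcad cells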;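 note: 0% = median of negative and 100% = median of positive control wells; the first replicate is given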
MT1-MMP act inh = MT1-MMP (human) activation inhibition | P50281 | HT1080 RFP-PRO-GFP cells, GFP/RFP ratio fluorescence, overnight; percent of plate control window, DMSO zero | GFP/RFP ratio change, % at 20 µM | actives 0.061% (n = 360,000) | AID 651647;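 active = GFP/RFP ratio change of at least 30% with cell ATP level not reduced by more than half and red fluorescence within 50% of control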; note: strong numbers were not always called active
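Assay system: RFP-PRO-GFP reporter HT1080 cells; read-out basis: GFP/RFP fluorescence ratio; benchmarks: DMSO wells and RFP-L50D-GFP cells; doses: 20 µM single dose, 1% DMSO; schedule: overnight cell settling, then overnight compound exposure, 37 °C, 5% CO2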
Rce1 inh = blocks yeast Ras-converting enzyme. actives 0.27% (n = 290,000). AID 2563. Q03530. yeast membranes, quenched prenylated peptide cleavage fluorescence. calls only;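 active = fall in fluorescence gain of 50% or more versus controls, with final raw signal at or below 3038400; inconclusive = same 50% fall but final raw signal above 3038400; inactive = fall in fluorescence gain under 50%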;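 note: plate controls were neutral control wells for no effect and wells lacking membranes for full effect; tested at 10 µM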
Target sequence (Q03530 whole entry, looked up): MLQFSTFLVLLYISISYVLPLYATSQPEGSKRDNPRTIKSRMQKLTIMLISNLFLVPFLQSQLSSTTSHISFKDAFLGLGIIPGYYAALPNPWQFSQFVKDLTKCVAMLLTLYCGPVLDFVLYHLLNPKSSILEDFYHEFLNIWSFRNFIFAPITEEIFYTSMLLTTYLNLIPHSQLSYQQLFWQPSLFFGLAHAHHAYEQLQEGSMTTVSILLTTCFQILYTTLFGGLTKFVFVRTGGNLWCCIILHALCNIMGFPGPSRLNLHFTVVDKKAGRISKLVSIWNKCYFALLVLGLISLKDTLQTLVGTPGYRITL
MT1-MMP act inh RFP = further read-out of MT1-MMP act inh, marked with its call; RFP signal change, %; measured here: RFP expression control read;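 0 = vehicle wells; hits needed this value within 50% of zero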
* marks the source's active call; other numbers are inactive results; i = inactive; u = inconclusive; x = no result given; & = joins results of further samples.

SMILES | eIF4H FP inh | HIV Env fusion | PABP polyA inh | Yeast UUG start | CSC inhib | MT1-MMP act inh | MT1-MMP act inh RFP | Rce1 inh
COc1ccccc1CN1CCN(C(=O)c2cccc3ccccc23)CC1 | x | 4 | x | -18 | -5 | -6 | -3 | i
Cc1cnc(C(=O)OCC(=O)Nc2ccc(Cl)cc2Cl)cn1 | -6 | x | -4 | -18 | 26 | -2 | 1 | i
Cc1cc(C(=O)N2CCCC(N3CCN(c4cccc(C(F)(F)F)c4)CC3)C2)n[nH]1 (stereo unspecified) | 7 | 6 | -4 | 4 | 17 | 2 | -1 | i
O=C(/C=C/c1ccco1)NCc1ccccn1 | 33 | 1 | -5 | x | -13 | -4 | 2 | i
COc1ccc(NC(=O)C2OCCc3ccccc32)c(OC)c1 (stereo unspecified) | -3 | x | -8 | -11 | -3 | -2 | 3 | i
CC(=O)c1cnn(-c2c(Cl)cc(Cl)cc2Cl)c1C | -1 | 16 | 3 | -16 | -12 | 3 | -8 | i
O=C(c1cc(-c2cccc(Cl)c2)on1)N1CCc2ccccc2C1 | -7 | -12 | 8 | -14 | -12 | -3 | -2 | i
COc1ccc(CCNC(=O)COC(=O)c2cc(OC)c(OC)cc2OC)cc1OC | 6 | -2 | -4 | 1 | -1 | -4 | 3 | i
Cc1ccc(-c2csc(NC(=O)CN3CCOCC3)n2)cc1C | -6 | x | -5 | -2 | 13 | 2 | -7 | i
O=[N+]([O-])c1ccc(N2CCN(Cc3ccccc3)CC2)c2c1no[n+]2[O-] | x | -315 | x | 56 | x | -180 | -31 | x
C[C@H](CO)N1C[C@H](C)[C@@H](CN(C)S(C)(=O)=O)Oc2ccc(NS(=O)(=O)c3cn(C)cn3)cc2C1=O | x | -20 | x | -1&-12 | x | 0 | 6 | x
Cc1ccc(C(CC(=O)N2CCCCC2)c2ccccc2)c(O)c1C (stereo unspecified) | -11 | -10 | 5 | -18 | x | -6 | -2 | i
COC(=O)C1=C(C)NC(=S)N(C(C)=O)C1c1ccccc1 (stereo unspecified) | -13 | x | 3 | -13 | -6 | -5 | 3 | i
O=C(NCc1ccncc1)C(=O)NCC(c1ccco1)N1CCN(c2ccccc2F)CC1 (stereo unspecified) | -3 | x | 0 | -13 | -8 | -2 | -8 | i
Cc1ccc(C(=O)/C=C/N(C)C)o1 | 3 | 1 | 6 | 3 | -6 | -10 | 3 | i
CCc1nc(SCc2ccc(Cl)cc2)n[nH]1 | 0 | 0 | 0 | x | -17 | 2 | 2 | i
N/C(=N\OC(=O)c1ccc2ccccc2c1)c1ccc(Br)cc1 | -2 | -35 | 6 | x | 2 | 2 | 0 | i
CCOc1ccccc1CNS(=O)(=O)c1csc(C(N)=O)c1 | -5 | -2 | 1 | -7 | -32 | 3 | 1 | i
CC(=O)Nc1ccc(-c2csc(NNC(=O)c3ccc(C)cc3)n2)cc1 | 7 | -7 | 10 | x | -2 | -1 | 4 | i
COc1ccc(CNC(=O)C[C@H]2C[C@H](C(=O)N3CCOCC3)[C@@]3(C)c4[nH]c5ccc(Cl)cc5c4CCN3C2=O)cc1OC | x | -3 | x | -14 | x | -2 | -3 | x
O=C1OC(c2ccccc2)c2ccccc21 (stereo unspecified) | 1 | x | 7 | x | -11 | 3 | -1 | i
O=C(OCCCOc1ccc(F)cc1)c1ccc(O)cc1O | -4 | 3 | -14 | -5 | 31 | 0 | 0 | i
Oc1ccccc1Cn1nnc2ccccc21 | -13 | 0 | 6 | -19 | -10 | 2 | -3 | i
CCOC(=O)c1c(NC(C)=O)sc2c(OC(C)=O)cccc12 | -5 | x | 5 | -14 | 2 | -3 | -5 | i
Cc1ccc(NC(=O)CSc2nnc(-c3cnccn3)n2Cc2ccco2)cc1 | -2 | 5 | -8 | -16 | -10 | 1 | 1 | i

The closing 6 records of the part above lead into the next:
SMILES,eIF4H FP inh,HIV Env fusion,PABP polyA inh,Yeast UUG start,CSC inhib,MT1-MMP act inh,MT1-MMP act inh RFP,Rce1 inh
COc1ccc(CNC(=O)C[C@H]2C[C@H](C(=O)N3CCOCC3)[C@@]3(C)c4[nH]c5ccc(Cl)cc5c4CCN3C2=O)cc1OC,x,-3,x,-14,x,-2,-3,x
O=C1OC(c2ccccc2)c2ccccc21 (stereo unspecified),1,x,7,x,-11,3,-1,i
O=C(OCCCOc1ccc(F)cc1)c1ccc(O)cc1O,-4,3,-14,-5,31,0,0,i
Oc1ccccc1Cn1nnc2ccccc21,-13,0,6,-19,-10,2,-3,i
CCOC(=O)c1c(NC(C)=O)sc2c(OC(C)=O)cccc12,-5,x,5,-14,2,-3,-5,i
Cc1ccc(NC(=O)CSc2nnc(-c3cnccn3)n2Cc2ccco2)cc1,-2,5,-8,-16,-10,1,1,i
O=C(CCCN1C(=O)c2cccc3cccc(c23)C1=O)NC1CCS(=O)(=O)C1 (stereo unspecified),4,-11,0,x,-4,-2,0,i
Cc1cc2nc(C)c(=O)n(C)c2cc1C,6,-53,-4,x,-13,2,1,i
OCC[C@H]1C[C@@H](O)[C@H](O)[C@]2(CCc3ccccc3CO2)O1,x,-30,x,-12,1,x,x,x
O=C(NCCCCCCNC(=O)c1ccc(Br)s1)c1ccc(Br)s1,-11,-22,-12,6,-12,6,-3,i
O=C(CN1CCOCC1)Nc1ccccc1-c1ccccc1,-15,-39,1,-8,34,2,-1,i
C=CCc1cccc2cc(C(=O)OCC(=O)c3ccccc3)c(=O)oc12,-2,x,-1,-1,24,-1,0,i
CC(C(=O)OCC(=O)Nc1ccc(S(N)(=O)=O)cc1)N1C(=O)c2ccccc2C1=O (stereo unspecified),x,1,x,-4,-10,1,1,x
CC1CC(C)CN(C(=O)CN2C(=O)NC3(CCCCCCC3)C2=O)C1 (stereo unspecified),x,-4,x,0,9,-1,2,x
CC(C)CNc1nnnc2c1sc1nc(N3CCOCC3)c3c(c12)CC(C)(C)SC3,6,x,21,-20,-6,-18,-15,i
Cc1nc([N+](=O)[O-])c(Br)n1CC(=O)c1ccc(Br)cc1,-13,24,-15,-25,34,-1,-10,i

Entries listed so far containing bromine:
SMILES,eIF4H FP inh,HIV Env fusion,PABP polyA inh,Yeast UUG start,CSC inhib,MT1-MMP act inh,MT1-MMP act inh RFP,Rce1 inh
N/C(=N\OC(=O)c1ccc2ccccc2c1)c1ccc(Br)cc1,-2,-35,6,x,2,2,0,i
O=C(NCCCCCCNC(=O)c1ccc(Br)s1)c1ccc(Br)s1,-11,-22,-12,6,-12,6,-3,i
Cc1nc([N+](=O)[O-])c(Br)n1CC(=O)c1ccc(Br)cc1,-13,24,-15,-25,34,-1,-10,i

Additional compounds follow.
SMILES,eIF4H FP inh,HIV Env fusion,PABP polyA inh,Yeast UUG start,CSC inhib,MT1-MMP act inh,MT1-MMP act inh RFP,Rce1 inh
COc1ccc(C(=O)N(CN2CCCC2=O)c2cc(C)on2)cc1OC,-2,-87,-1,-18,8,1,6,i
O=C(NC1CCCCC1)C(c1ccncc1)N(C(=O)Cn1nnc(-c2cccs2)n1)C1CCCC1 (stereo unspecified),4,x,0,-11,-10,3,1,x
Cc1ccc(C)c(S(=O)(=O)Nc2ccc3oc(C)c(C(=O)O)c3c2)c1,87*,14,75*,-22,3,2,-3,i
CS(=O)(=O)c1ccc(NCCc2ccc(S(N)(=O)=O)cc2)c([N+](=O)[O-])c1,-3,11,-2,-9,-7,x,x,i
O=C(COC(=O)C1CC1)Nc1ncc(C(F)(F)F)cc1Cl,u,-10,-4,x,-5,-11,1,x
COc1cccc(-n2c(N)cc(=O)nc2SCC(=O)N2CCN(c3ccccc3)CC2)c1,4,-8,-6,-13,-2,2,3,i
C=C(C)c1cccc(C(C)(C)NC(=O)N(Cc2ccccc2)Cc2ccco2)c1,-9,x,-8,-23,-7,-17,-21,i
O=C(NCCCNC(=O)c1cnccn1)c1cccc(Cl)c1,-18,3,11,-2,-2,-1,0,x
C[C@H]1CN=C(N(C)C)N1CCCC1CCCCC1,x,-11,x,-8,21,0,4,x
COc1ccc(Br)cc1/C=N/NC(=O)c1cccnc1,12,-3,5,-7,3,-2,1,i
CCC(C)NC(=O)c1cn(CC)c2ccc(S(=O)(=O)N3CCCCCC3)cc2c1=O (stereo unspecified),1,7,10,-6,10,-11,-11,i
Cc1ccc(OCc2cc(C(=O)N3CC4C[C@@H]5CC3C[C@H](C4)C5)no2)cc1C,3,x,3,-20,-7,2,-5,i
CC1=CCC2C(=O)N(c3ccc4ccccc4n3)C(=O)C2C1 (stereo unspecified),-4,x,1,-8,-7,-5,1,i
Cc1cc(C)c(N2CCN(S(=O)(=O)N3CCCCCC3)CC2)c(C)c1,5,x,9,-10,x,-5,-7,i
O=C(Cc1cccs1)NCC1CCCO1 (stereo unspecified),5,x,10,-15,1,1,3,i
CC1=C(C(=O)Nc2cccc(C(=O)NCc3ccc(F)cc3)c2)SCCO1,-3,4,0,-18,-7,3,-9,i
O=C(CN(C(=O)CNS(=O)(=O)c1ccc(F)cc1)c1ccccc1F)NCc1ccco1,-4,-4,-2,-17,-10,-1,0,i
CCOC(=O)C1CCCCN1Cc1cccc(F)c1 (stereo unspecified),-2,x,27,x,-8,4,7,i
Nn1c(SCCOc2ccccc2)nnc1-c1cccnc1,-3,-4,-4,-15,-7,0,0,i
O=C(/C=C/c1ccc2c(c1)OCCO2)c1ccccc1,-1,-10,5,-19,13,-1,-3,i
CC(C)N(C(=O)Cn1c(-c2cccnc2)ccc(C#N)c1=O)C(C)C,10,13,-3,-24,2,3,-1,i
